Source: PubChem
StopGo FLuc: FMDV 2A StopGo reporter, firefly signal. HEK cells with a luciferase reporter of 2A StopGo recoding. Potency, µM (highest dose often 57.5 µM), for inactives: at the highest dose signal change, negative = less light. hit rate 0.23% among 120,000; active = well fitted falling curve with a large enough effect; inconclusive = small, poorly fitted or top-dose-only effect; inactive = no such curve, though single readings can be large or run the other way; note: nearly all actives have a fitted effect of over 60% in size; overnight with compound
2A Renilla: lowers the Renilla signal of an FMDV 2A StopGo reporter | Potency, µM (top dose mostly 57.5 µM), for inactives: top-dose signal change, negative = less light | AID 1745857 | hit rate 0.32% among 120,000 | HEK cells with a luciferase reporter of 2A StopGo recoding; active means well fitted falling curve with a large enough effect; inconclusive means small, poorly fitted or top-dose-only effect; inactive means no such curve, though single readings can be large or run the other way; note: nearly all actives have a fitted effect of over 55% in size; overnight with compound
* hit, by the source's call; ? = inconclusive; & = joins results of further samples; [ ] = dose if it differs, or a comment. % is set by controls: 0 for no effect and ±100 for the full control effect; potency is the fitted concentration of half-maximal effect.

1: Cc1cc(C)c(S(=O)(=O)Nc2ccc(-c3ccc(N4CCCCCC4)nn3)cc2)c(C)c1
2: CS(=O)(=O)c1cccc(C(=O)N2CCCCC2)c1
3: Cn1c(=O)c2c(nc(NCC3CCCO3)n2Cc2ccccc2)n(C)c1=O (stereo not drawn)
4: Cc1ccc(CNC(=O)COc2ccc3c(C(F)(F)F)cc(=O)oc3c2)cc1
5: N#Cc1c(N)n[nH]c1CCCNC(=O)C1c2ccccc2Oc2ccccc21
6: CCc1ccc(CN(Cc2cn[nH]c2-c2ccc(OC)cc2)C(=O)Nc2cc(Cl)ccc2OC)cc1
7: O=C(Nc1cc2c(cc1C(=O)c1ccccc1Br)OCCO2)c1cccc(Cl)c1
8: CCOc1ccccc1CNC(=O)c1cccn1-c1nnc(N2CCCCC2)s1
Assay by compound	1	2	3	4	5	6	7	8
StopGo FLuc	117%[activator]	6%	-7%	9%	8%	-10%	-3%	18%
2A Renilla	92%[activator]	-4%	-4%	-5%	23%	-11%	-9%	162%[activator]

9: CNC(=O)NC(=O)CN(C)Cc1cccc(C#N)c1
10: COc1ccccc1CNC(=O)c1ccc(NC(=O)N2CC(C)Sc3ccccc32)cc1 (stereo not drawn)
11: Cc1ccc(Cn2cccc2C2=NC(C)(C)CO2)cc1
12: OCCCCCCNC(=S)Nc1ccc(F)cc1
13: O=C(CCc1ncc(-c2ccc(F)cc2)o1)Nc1nccs1
14: COc1ccc(-c2c(NC(=O)c3cccs3)oc3c(C)cccc3c2=O)cc1OC
15: COc1ccc(CCC(=O)NCc2nc3cccnc3n2Cc2ccc(OC)cc2)cc1
16: CN1CCc2c(sc3ncn4nc(COc5ccc6ccccc6c5)nc4c23)C1
Assay by compound	9	10	11	12	13	14	15	16
StopGo FLuc	-9%	-16%	0%	23%	26%	-14%	-20%	?
2A Renilla	-2%	2%	0%	7%	-10%	-11%	9%	?

17: COc1ccc(CN2CCN(C(=O)Nc3cccc(Cl)c3)CC2)c(OC)c1OC
18: Clc1ccc(CSc2nc3ncccc3[nH]2)cc1Cl
19: O=C(O)c1ccc(Cl)cc1Cl
20: Cc1cc(C)c2c(=O)cc(C(=O)Nc3onc4c3CC(C)CC4)oc2c1 (stereo not drawn)
21: COC(=O)c1sc2ccccc2c1S(=O)(=O)N1CCN(c2cc(Cl)ccc2C)CC1
22: CCCCOc1cccc(CNCCCOCC)c1
23: COC(=O)C1=C(C)OC(N)=C(C#N)C1c1ccc(C)cc1C (stereo not drawn)
24: CCc1ccc(OCC(=O)N(Cc2ccc(OC)cc2)C2CCS(=O)(=O)C2)cc1 (stereo not drawn)
Assay by compound	17	18	19	20	21	22	23	24
StopGo FLuc	-1%	133%[activator]	8%	5%	0%	6%	62%[activator]	-18%
2A Renilla	-6%	4%	9%	18%	55%[activator]	7%	9%	-9%

25: CCn1c(Br)nc2c1c(=O)n(C)c(=O)n2C
26: Cc1ccc(CN2c3ccccc3-c3nc(SCC(=O)Nc4c(C)cc(C)cc4C)ncc3S2(=O)=O)cc1
27: CCc1c(C)c(C#N)c2nc3ccccc3n2c1Nc1cccc(C(F)(F)F)c1
28: O=C(CSc1cccs1)NCc1cccs1
29: COc1ccc(C2=C(C)C(=NCCCN3CCN(c4cc(C)ccc4C)CC3)NS2(=O)=O)cc1
30: COc1ccc(C2CC(=O)C3=C(C2)OC(N)=C(C#N)C3c2cccc(Br)c2)cc1 (stereo not drawn)
31: Cc1cccc(NC(=O)CSc2nnc(NC(=O)Nc3ccccc3)s2)c1C
32: CC1=C(C(=O)N2CCN(c3cccc(Cl)c3)CC2)C2(CCCCC2)OC1=O
Assay by compound	25	26	27	28	29	30	31	32
StopGo FLuc	-7%	-3%	-10%	?	?	-7%	-23%	-16%
2A Renilla	5%	-6%	-7%	13%	?	27%	-5%	-16%

33: CCOC(=O)c1sc2nc(N3CCOCC3)c3c(c2c1N)CCN(C)C3
34: CC(=O)OCC(=O)[C@@]1(OC(C)=O)[C@@H](C)C[C@H]2[C@@H]3C[C@H](F)C4=CC(=O)C=C[C@]4(C)[C@@]3(F)[C@@H](O)C[C@@]21C
35: CC(C)C(NC(=O)c1cccc(CS(C)(=O)=O)c1)c1ccc(F)cc1 (stereo not drawn)
36: CCN(CC)c1cc(C)nc(Nc2ccc(NS(=O)(=O)c3ccc(OC)c(OC)c3)cc2)n1
37: COc1ccc(CCNC(=O)Cc2c(C)c3ccc(O)c(C)c3oc2=O)cc1OC
38: COc1cc(/C=C(/C#N)c2nc3ccccc3o2)ccc1O
39: CCS(=O)(=O)NCc1ccnc(N2CCN(c3ccc(F)cc3)CC2)c1
40: COc1ccc(OCCSc2nc(C)c(Cc3ccccc3)c(=O)[nH]2)cc1
Assay by compound	33	34	35	36	37	38	39	40
StopGo FLuc	-4%	18%[11.5 µM]	-7%	?	6%&29%	0%	?	22%
2A Renilla	-6%	16%	4%	-61%	3%&-4%	-6%	?	2%

Looked up above.
2A Renilla with `COc1cc(/C=C(/C#N)c2nc3ccccc3o2)ccc1O` → -6%
2A Renilla with `CCN(CC)c1cc(C)nc(Nc2ccc(NS(=O)(=O)c3ccc(OC)c(OC)c3)cc2)n1` → -61%
StopGo FLuc with `CC(=O)OCC(=O)[C@@]1(OC(C)=O)[C@@H](C)C[C@H]2[C@@H]3C[C@H](F)C4=CC(=O)C=C[C@]4(C)[C@@]3(F)[C@@H](O)C[C@@]21C` → 18%[11.5 µM]
2A Renilla with `COc1ccc(CCNC(=O)Cc2c(C)c3ccc(O)c(C)c3oc2=O)cc1OC` → 3%&-4%
StopGo FLuc with `CCOC(=O)c1sc2nc(N3CCOCC3)c3c(c2c1N)CCN(C)C3` → -4%
StopGo FLuc with `CC(C)C(NC(=O)c1cccc(CS(C)(=O)=O)c1)c1ccc(F)cc1` (stereo not drawn) → -7%
StopGo FLuc with `COc1ccc(OCCSc2nc(C)c(Cc3ccccc3)c(=O)[nH]2)cc1` → 22%

Further compounds.
41: Cc1cccc(NC(=O)CSc2nc3ccc(NC(=O)c4cccs4)cc3s2)c1
42: Cc1cc(/C=C/C(=O)c2cccs2)cc(C)c1O
43: O=C(c1ccco1)N1N=C(c2c(-c3ccccc3)c3ccccc3[nH]c2=O)CC1c1ccccc1 (stereo not drawn)
44: Cc1cccc(-c2cc(-c3ccccc3)nc(SCC(=O)Nc3ccccc3)c2C#N)c1
45: COc1ccc(S(=O)(=O)NCc2nc3nc(C)cc(C)n3n2)cc1
46: CCN(CC)S(=O)(=O)c1ccc2c(c1)N(CC(=O)NCCCN1CCN(c3ccccc3F)CC1)C(=O)CO2
47: COc1ccc(-c2cc(C(F)(F)F)n3nc(-c4ccccc4)cc3n2)cc1OC
48: COC(=O)c1ccc(NC(=O)CSc2n[nH]c(CC(C)C)n2)cc1
Assay by compound	41	42	43	44	45	46	47	48
StopGo FLuc	5%	135%[activator]	?	-19%	0%	-7%	2%	-7%
2A Renilla	-14%	28%	?	0%	-13%	0%	2%	-4%

Results in sequence from the list.
Nos. 41–48 in 2A Renilla, in turn: -14%, 28%, ?, 0%, -13%, 0%, 2%, -4%
Nos. 41–48 in StopGo FLuc, in turn: 5%, 135%[activator], ?, -19%, 0%, -7%, 2%, -7%

Carrying on.
49: CCCOc1ccc(OC(=O)c2cn(-c3ccc(OC)cc3)c(=O)c3ccccc23)cc1
50: COc1ccc(Cl)cc1NC(=O)C(=O)NCc1ccc(Cl)cc1
51: CN(C(=O)Cn1nc(C(=O)O)c2ccccc2c1=O)c1ccccc1
52: CCCCC(=O)Nc1oc2c(C)cccc2c(=O)c1-c1ccc(OC)cc1
53: CC(C)(C)c1[nH]c2ccccc2c1C=O
54: CCCN1CCN(CCNC(=O)Nc2cc(C)ccc2OC)CC1
55: CCCNC(=O)c1c2c(nc3ccccc13)C(=O)N(C1CCCCC1)C2
56: CC(C(=O)c1ccccc1)C1(O)C(=O)Nc2ccc(Cl)cc21 (stereo not drawn)
Assay by compound	49	50	51	52	53	54	55	56
StopGo FLuc	-28%	-9%	2%	20%	0%	-11%	-26%	-3%
2A Renilla	-19%	-9%	-8%	3%	-2%	-2%	-13%	0%

A different layout for some results above:
| entry | Compound | StopGo FLuc | 2A Renilla |
| --- | --- | --- | --- |
| 2 | CS(=O)(=O)c1cccc(C(=O)N2CCCCC2)c1 | 6% | -4% |
| 17 | COc1ccc(CN2CCN(C(=O)Nc3cccc(Cl)c3)CC2)c(OC)c1OC | -1% | -6% |

Later entries:
57: CCCCOC(=O)c1ccc(NC(=O)c2ccc3c(c2)CCCN3S(C)(=O)=O)cc1
58: O=C(COc1ccc([N+](=O)[O-])cc1)N1CCC(c2nc3ccccc3s2)CC1
59: O=C(CCc1ncc(-c2ccccc2Cl)o1)N1CCN(S(=O)(=O)c2cc(F)ccc2F)CC1
60: CCOC(=O)Cn1cc(CN2CCS(=O)(=O)N(Cc3ccc(C)cc3)C(C(=O)OC)C2)nn1 (stereo not drawn)
61: COCc1ccc(C(=O)Nc2ccc(NC(C)=O)cc2C(F)(F)F)cc1
62: O=C(O)C/C(=C/c1cccs1)c1nc2ccccc2s1
63: CCN(CC)C(=O)CSc1cn(CC(=O)N2CCCCCC2)c2ccccc12
64: CC(Oc1ccccc1)C(=O)Nc1c(C(=O)Nc2cccc(F)c2)oc2ccccc12 (stereo not drawn)
Assay by compound	57	58	59	60	61	62	63	64
StopGo FLuc	28µM*	?	0%	-3%	6%	23%	-2%	40%[activator]
2A Renilla	22µM*	?	-3%	-3%	-7%	7%	-1%	-2%

Filtered by structure: the compounds so far containing a COOH group
19: O=C(O)c1ccc(Cl)cc1Cl
51: CN(C(=O)Cn1nc(C(=O)O)c2ccccc2c1=O)c1ccccc1
62: O=C(O)C/C(=C/c1cccs1)c1nc2ccccc2s1
Assay by compound	19	51	62
StopGo FLuc	8%	2%	23%
2A Renilla	9%	-8%	7%

The listing continues.
65: CCOCCCNC(=O)C1CCC(CNS(=O)(=O)c2ccc(NC(C)=O)cc2)CC1 (stereo not drawn)
66: Cc1ccc(C)c(N2CCN(C(=O)c3c4c(nc5ccccc35)C(=O)N(C3CCCCC3)C4)CC2)c1
67: CC(C)NC(C)C
68: COc1cc(/C=C/c2nc3ccccc3c(=O)n2-c2ccc(C(=O)O)cc2)ccc1O
69: CCc1ccccc1NC(=O)c1nc2ccccc2nc1N1CCOCC1
70: Cc1ccccc1Cn1c2ccccc2c2cnn(CC(=O)NCC(C)c3ccccc3)c(=O)c21 (stereo not drawn)
71: Cc1cc2ccccc2n1CCNC(=O)c1cccc(Cl)c1
72: COC(=O)NC(NC(=O)OC)c1ccc(Br)cc1
Assay by compound	65	66	67	68	69	70	71	72
StopGo FLuc	-16%	-22%	-16%[11.5 µM]	95%[activator]	-6%	-16%	134%[activator]	-5%
2A Renilla	0%	1%	-9%	67%[activator]	-3%	-18%	-4%	-4%

73: Nc1nccnc1C(=O)NCc1ccc(Cl)s1
74: COc1ccc(CNC(=O)c2cc(-c3cccc(Cl)c3)on2)cc1
75: C/C(=N\NC(N)=S)c1ccc(C2CCCCC2)cc1
76: Cc1nn(-c2ccc(N3CCCCC3)nn2)c(C)c1CCC(=O)NCCc1ccco1
77: COc1ccc(Cl)cc1NC(=O)CSc1cc(C)[nH]c(=O)n1
78: CCC(=O)c1cc(Br)c(OC)cc1OC
79: COc1ccc(CCNC(=O)c2nn(C)c3c2CS(=O)(=O)c2ccccc2-3)cc1OC
80: Cc1ccc2cccc(SCc3ccc(F)cc3)c2n1
Assay by compound	73	74	75	76	77	78	79	80
StopGo FLuc	-6%	-7%	10%	0%	-3%	6%	-2%	-1%
2A Renilla	-4%	-7%	?	13%	5%	8%	6%	2%

81: Cc1ccc(-c2csc(-c3cc4c([nH]c3=O)CC(c3ccccc3)CC4=O)n2)cc1 (stereo not drawn)
82: Cc1ccc(C(O)CNC(=O)C2CC=CCC2)cc1 (stereo not drawn)
83: Cc1ccc(C2Cc3ccccc3N2)cc1 (stereo not drawn)
84: O=C(Cc1coc2cc3c(cc12)CCC3)NC1CCSc2c(F)cccc21 (stereo not drawn)
85: CCOc1cc(/C=C2\C(=O)Nc3ccccc32)ccc1OC(F)F
86: CCCC(CCC)C(=O)NCCc1c[nH]c2ccc(C)cc12
87: COCCn1cnc2c1c(=O)n(CC(=O)Nc1ccc(OC(F)F)cc1)c(=O)n2Cc1ccccc1
88: CCc1ccc(OCC(=O)Nc2cc3oc4ccccc4c3cc2OC)cc1
Assay by compound	81	82	83	84	85	86	87	88
StopGo FLuc	-3%	22%	245%[activator]	6%	17%	-22%	-7%	-5%
2A Renilla	4%	24%	14%	13%	2%	5%	-3%	-4%

89: COc1ccc(N(CC(=O)NCc2ccc(C)cc2)S(=O)(=O)c2c(C)[nH]c(=O)[nH]c2=O)cc1
90: O=C(NCc1ccco1)c1cc(-c2cccnc2)nc2ccccc12
91: O=C(c1sc2ccccc2c1Cl)N1CCCCC1
92: COCCNC(=O)NC(=O)CSc1nc(-c2ccccc2)c(-c2ccccc2)o1
Assay by compound	89	90	91	92
StopGo FLuc	7%	20%	152%[activator]	?
2A Renilla	7%	32%[activator]	52%[activator]	?
